Mtb growth: Mycobacterium tuberculosis H37Rv growth inhibition, putative kinase inhibitor library, confirmatory dose response (AID 2842); M. tuberculosis H37Rv growth inhibition; higher % means a stronger effect; some inactives read as strong as hits; inhibition, % at 10 µg/mL, or IC90 in µg/mL where a hit was titrated; actives 5.2% (n = 24,000);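 active = confirmed in a dose series; inconclusive = mostly over 85% at the one dose but not retested; inactive = below 85% or not confirmed; about a fifth of its hits are not listed in these tables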;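 note: bacteria incubated one week before Alamar blue readout; 0% = bacteria only wells and 100% = bacteria with high antibiotic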
Starred values were filed as active, the others as inactive. Some of the compounds tested. The share of hits here may be higher or lower than overall.

Screening Nc1ncnc(Nc2cc(Cl)c(Cl)cc2Cl)c1[N+](=O)[O-] returned Mtb growth 2%.
For CCS(=O)(=O)c1cccc(C(=O)Nc2nnc(-c3ccc(Br)cc3)o2)c1 the results were Mtb growth 7.8µg/mL*.
Screening Cc1ccc(NS(=O)(=O)c2cc(C)c3[nH]c(=O)cc(C)c3c2)cc1C returned Mtb growth -12%.
`COc1ccc(OC)c2[nH]c(=O)c(CCNC(C)=O)cc12` gave Mtb growth 1%.
Screening CC1(C)Cc2c(sc(NC(=O)c3nc4ccccc4s3)c2C#N)C(C)(C)N1 returned Mtb growth -2%.
Screening Cc1ccc(-n2ncc3c(NCc4ccccn4)ncnc32)c(C)c1 returned Mtb growth 21%.
`O=C(Nc1nnc(-c2ccc(F)cc2)o1)c1cccc(F)c1` gave Mtb growth 83%.
Cc1oc2c(c1C(=O)NCCC(C)C)C(=O)c1ccccc1C2=O was read as Mtb growth inconclusive.
`CSc1nnc(CNC(=O)c2ccccc2)n1-c1cccc(C)c1` gave Mtb growth 11%.
Screening Cc1ccc(-n2ncc3c(NNC(=O)c4ccco4)ncnc32)cc1C returned Mtb growth inconclusive.
For Cc1cc(C)c(S(=O)(=O)N2CCN(C(=O)c3cccs3)CC2)c(C)c1 the results were Mtb growth -3%.
Nc1c(C(=O)c2ccc(Br)cc2)sc2nc3c(cc12)C(=O)CCC3 was read as Mtb growth 6%.

The list goes on; it opens with the six that closed the last part.
`O=C(Nc1nnc(-c2ccc(F)cc2)o1)c1cccc(F)c1` gave Mtb growth 83%.
Cc1oc2c(c1C(=O)NCCC(C)C)C(=O)c1ccccc1C2=O was read as Mtb growth inconclusive.
`CSc1nnc(CNC(=O)c2ccccc2)n1-c1cccc(C)c1` gave Mtb growth 11%.
Screening Cc1ccc(-n2ncc3c(NNC(=O)c4ccco4)ncnc32)cc1C returned Mtb growth inconclusive.
For Cc1cc(C)c(S(=O)(=O)N2CCN(C(=O)c3cccs3)CC2)c(C)c1 the results were Mtb growth -3%.
Nc1c(C(=O)c2ccc(Br)cc2)sc2nc3c(cc12)C(=O)CCC3 was read as Mtb growth 6%.
`COc1ccc(C(=O)Nc2c(N)nc(SCc3ccc(F)cc3)[nH]c2=O)cc1OC` gave Mtb growth -16%.
For COc1ccc(-c2nnc3ccc(SCC(=O)N4CCOCC4)nn23)cc1OC the results were Mtb growth -5%.
`Nc1nc(NCCOCCO)nc(Nc2ccc(F)cc2)c1[N+](=O)[O-]` gave Mtb growth -19%.
For COC(=O)c1ccc(CSc2nncc(=O)n2N)o1 the results were Mtb growth -11%.
COc1cccc2c(=O)n(CC(=O)NCCc3ccccc3)ccc12 was read as Mtb growth 0%.
Screening O=C(Nc1nnc(C2=COCCO2)o1)c1ccc(Oc2ccccc2)cc1 returned Mtb growth 17µg/mL*.
Screening O=C(CSc1ncnc2c1cnn2-c1ccc(Cl)cc1)NCc1ccc2c(c1)OCO2 returned Mtb growth -1%.
`O=c1c2ccccc2nc2c3ccccc3c(Cl)nn12` gave Mtb growth -6%.
Screening COc1ccc2nc(NNC(=O)c3ccc(S(=O)(=O)N(C)C)cc3)sc2c1 returned Mtb growth 79%.
Screening FC(F)Oc1ccc(NC(=S)N2CCOCC2)cc1 returned Mtb growth -6%.
Cn1c(Cn2c(=O)sc3ccccc32)nnc1SCC(=O)Nc1ccccc1F was read as Mtb growth 0%.
Screening O=C(COc1ccccc1)Oc1coc(CSc2ncccn2)cc1=O returned Mtb growth -9%.
For O=C(Nc1nnc(-c2cccc([N+](=O)[O-])c2)s1)c1cccs1 the results were Mtb growth 3%.
Cc1ccc(-c2nnc3c4cc5c(cc4n(Cc4cccc(F)c4)cc2-3)OCCO5)cc1 was read as Mtb growth 27%.
`CCOc1ccc(NC(=O)c2ccc(S(=O)(=O)N(C)C)cc2)cc1` gave Mtb growth -1%.
CN(CCCC(=O)Nc1ccc(Cl)cc1)S(=O)(=O)c1ccc(Cl)cc1 was read as Mtb growth 8%.
For O=c1oc2cc(OCC(O)Cn3cnc4ccccc43)ccc2c2c1CCC2 (stereo unspecified) the results were Mtb growth 71%.
CCOC(=O)c1sc(Nc2nc3ccc(OC)cc3s2)nc1C was read as Mtb growth 2%.
For COc1cccc(Cn2cc3c(-c4ccccc4)nnc-3c3cc4c(cc32)OCO4)c1 the results were Mtb growth 43%.
For O=C(CCn1c(=O)sc2ccccc21)Nc1nc2ccccc2s1 the results were Mtb growth -1%.
For CCc1c(C#N)c(SCC(=O)c2cc3ccccc3oc2=O)nc2c1CCC2 the results were Mtb growth 0%.
For CN(C(=O)COc1ccc(Cl)cc1)C1CCS(=O)(=O)C1 (stereo unspecified) the results were Mtb growth -3%.
`Cc1cccc(-c2nnc(NC(=O)c3ccc([N+](=O)[O-])cc3)s2)c1` gave Mtb growth 2%.
For Cc1ccc(-n2ncc3c(SCC(=O)Nc4nccs4)ncnc32)c(C)c1 the results were Mtb growth -10%.
Screening CN(C)S(=O)(=O)c1ccc(C(=O)Nc2nc(-c3ccc4c(c3)CCCC4)cs2)cc1 returned Mtb growth -4%.
O=C(CSc1nc(-c2ccc(F)cc2)nc2c1Cc1ccccc1O2)Nc1cccc(C(=O)O)c1 was read as Mtb growth -5%.
N#C/C(=N\Nc1ccc2c(c1)OCCO2)c1nc2ccccc2s1 was read as Mtb growth -3%.
Screening COc1ccc(C(=O)Nc2ccccc2C#N)cc1OC returned Mtb growth -7%.
`CC(=O)c1ccc(NC(=O)c2cn(-c3ccccc3)nc2-c2cc3ccccc3o2)cc1` gave Mtb growth -1%.
`CC(C)(C)c1ccc(C(=O)Oc2cc(N)n(S(=O)(=O)c3ccccc3)n2)cc1` gave Mtb growth 0%.
Screening CC(=O)Nc1cccc(NC(=O)C(=O)Nc2ccc3c(c2)N(C(=O)C2CC2)CCC3)c1 returned Mtb growth 11%.
Cc1ccnc(SCc2cc(=O)c(OC(=O)/C=C/c3ccc4c(c3)OCO4)co2)n1 was read as Mtb growth -3%.
For CN1C(=O)c2cccc(NC(=O)c3ccc(Oc4ccccc4)cc3)c2C1=O the results were Mtb growth 2%.
CCOC(=O)c1nn(-c2ccccc2)c(=O)c2c(NC(=O)CC3CCCCC3)scc12 was read as Mtb growth -2%.
For CNC(=O)C(=O)Nc1cc2c3c(c1)C(C)C(=O)N3CCC2 (stereo unspecified) the results were Mtb growth -12%.
`CCCc1nc(SCC(=O)Nc2cccc(F)c2)c2c(=O)n(C)c(=O)n(C)c2n1` gave Mtb growth 3%.
`O=C(COc1ccc2ccccc2c1)N1CCN=C1SCc1cccnc1` gave Mtb growth -18%.
For COc1ccc(NC(=O)c2oc3ccccc3c2NC(=O)c2ccc(Br)o2)cc1 the results were Mtb growth -9%.
O=c1c(Oc2ccc(O)cc2)coc2cc(O)ccc12 was read as Mtb growth -5%.
Cc1cn2c3c(=O)n(Cc4ccc(F)cc4)c(=O)n(C)c3nc2n1CCc1ccccc1 was read as Mtb growth 5%.
`CCc1nnc(NC(=O)CSc2nc3c(c(=O)n2CC)SC(C)C3)s1` (stereo unspecified) gave Mtb growth -2%.
CCSc1nnc(NC(=O)CSc2nc3c([nH]c4ccccc43)c(=O)n2-c2cccc(OC)c2)s1 was read as Mtb growth 29%.
COc1ccc(C(=O)Nc2nc3c(C)c(C)ccc3s2)c(OC)c1 was read as Mtb growth -6%.
For Cc1ccc(-c2cc(C(=O)N=Nc3c(O)[nH]c4ccccc34)[nH]n2)cc1 the results were Mtb growth 41%.
`CN1CCN(c2nc3c(c(=O)[nH]c(=O)n3C)n2Cc2ccc(Cl)cc2)CC1` gave Mtb growth -8%.
Screening CC(=O)c1ccc(NC(=O)CSc2ncc(C(=O)Nc3ccc(C)c(C)c3)c(=O)n2C)cc1 returned Mtb growth -5%.
`CCOc1ccc(NC(=O)c2oc3ccccc3c2NC(=O)c2ccccc2Cl)cc1` gave Mtb growth 3%.
`Cc1ccc(Nc2nc(Nc3cccc(F)c3)nc3nccnc23)cc1` gave Mtb growth 39%.
`O=C(Nc1nnc(SCc2cccc(F)c2)s1)C1CC(=O)N(c2ccccc2)C1` (stereo unspecified) gave Mtb growth 16%.
`COc1ccc(CC(=O)NCCc2cc3c(OC)ccc(OC)c3[nH]c2=O)cc1OC` gave Mtb growth -4%.
`O=C(Nc1ccc(-c2nc3ccccc3s2)c(O)c1)c1cc(=O)c2ccccc2o1` gave Mtb growth 12%.
Screening COc1ccccc1-c1nnc(NC(=O)c2ccc(Cl)cc2Cl)o1 returned Mtb growth -1%.
`CCN=C1SC(CC(=O)Nc2sc(CC)cc2C(=O)OCC)C(=O)N1CC` (stereo unspecified) gave Mtb growth -5%.
O=C(O)c1ccccc1-c1ccccc1C(=O)Nc1nc2ccccc2s1 was read as Mtb growth -22%.
`NC(=O)c1c(NC(=O)c2c(F)cccc2F)sc2c1CCCC2` gave Mtb growth 45%.
Screening COc1ccccc1Nc1nc(NCc2ccco2)c2ccccc2n1 returned Mtb growth 5.6µg/mL*.
Screening CN(C)c1ccc(C(=O)Nc2nnc(-c3ccc(Br)cc3)o2)cc1 returned Mtb growth 83%.
Cc1ccc(C)c(-c2nn(-c3ccccc3)cc2/C=C(/C#N)c2nc3ccccc3c(=O)[nH]2)c1 was read as Mtb growth -6%.
For O=C(Nc1nc(-c2ccc([N+](=O)[O-])cc2)cs1)c1ccc(S(=O)(=O)N2CCCCCC2)cc1 the results were Mtb growth -15%.
For O=C(O)CN1C(=O)/C(=C2\SC(=Nc3ccc(F)cc3)NC2=O)c2ccccc21 the results were Mtb growth 10%.

Retrieved by structure from the list above:
Screening CN(C)c1ccc(C(=O)Nc2nnc(-c3ccc(Br)cc3)o2)cc1 returned Mtb growth 83%.
For O=C(O)CN1C(=O)/C(=C2\SC(=Nc3ccc(F)cc3)NC2=O)c2ccccc21 the results were Mtb growth 10%.
Cc1ccc(C)c(-c2nn(-c3ccccc3)cc2/C=C(/C#N)c2nc3ccccc3c(=O)[nH]2)c1 was read as Mtb growth -6%.
`O=C(Nc1ccc(-c2nc3ccccc3s2)c(O)c1)c1cc(=O)c2ccccc2o1` gave Mtb growth 12%.
Screening COc1ccccc1-c1nnc(NC(=O)c2ccc(Cl)cc2Cl)o1 returned Mtb growth -1%.
Screening COc1ccccc1Nc1nc(NCc2ccco2)c2ccccc2n1 returned Mtb growth 5.6µg/mL*.

The list continues:
For COC(=O)c1cc(Nc2ncnc3scc(-c4ccc(Cl)cc4)c23)cc(C(=O)OC)c1 the results were Mtb growth -12%.
For O=C(CSc1nnc(-c2ccco2)n1-n1cccc1)Nc1ccc(Cl)c(C(F)(F)F)c1 the results were Mtb growth 7%.
COc1ccc(-c2nnc3c4cc(OC)c(OC)cc4n(Cc4ccc(C)cc4)cc2-3)cc1 was read as Mtb growth 95µg/mL*.
Cc1cc(C)cc(NC(=O)CSc2nc3[nH]ncc3c(=O)[nH]2)c1 was read as Mtb growth 25%.
Cc1cccc(Cn2c(N3CCCCC3C)nc3c2c(=O)[nH]c(=O)n3C)c1 (stereo unspecified) was read as Mtb growth 22%.
Screening CCS(=O)(=O)c1ccc(C(=O)Nc2nnc(-c3cc(C)ccc3C)o2)cc1 returned Mtb growth 12%.
Screening CCc1ccc(NC(=O)CSc2nccn(-c3ccc(OC)c(Cl)c3)c2=O)cc1 returned Mtb growth -19%.
Screening CCOc1ccc(-c2csc(NC(=O)c3ccc(N4C(=O)CCC4=O)cc3)n2)cc1 returned Mtb growth 10%.
`O=C(Nc1ccc(S(=O)(=O)Nc2nccs2)cc1)c1ccc(Br)cc1` gave Mtb growth 5%.
Screening COc1cccc(-c2cc(C#N)c(NC(=O)c3ccccc3)o2)c1 returned Mtb growth -4%.
Screening O=C(CNC(=O)C12CC3CC(CC(C3)C1)C2)N/N=C\c1ccco1 returned Mtb growth 1%.
`Cc1ccc(NC(=O)CSc2ccnc3c2c(=O)n(C)c(=O)n3C)cc1` gave Mtb growth -2%.

Quoted from the results shown for reference:
For O=C(CSc1nnc(-c2ccco2)n1-n1cccc1)Nc1ccc(Cl)c(C(F)(F)F)c1 the results were Mtb growth 7%.
COc1ccc(-c2nnc3c4cc(OC)c(OC)cc4n(Cc4ccc(C)cc4)cc2-3)cc1 was read as Mtb growth 95µg/mL*.
Cc1cc(C)cc(NC(=O)CSc2nc3[nH]ncc3c(=O)[nH]2)c1 was read as Mtb growth 25%.

(list continues)
For Cc1ccc(S(=O)(=O)Nc2ccccc2C(=O)Nc2nc(-c3ccc4c(c3)CCCC4)cs2)cc1 the results were Mtb growth -5%.
For Clc1cccc(NCc2nnc3n2CCCCC3)c1 the results were Mtb growth 0%.
For CC(=O)Nc1ccc(S(=O)(=O)NCCc2csc(-c3cccnc3)n2)cc1 the results were Mtb growth 6%.
Screening COC(=O)C1=C(NC(=O)c2ccc(C(=O)c3ccccc3)cc2)CCS1 returned Mtb growth -5%.
`CCc1ccc(S(=O)(=O)c2n[nH]n3c2nc(=O)c2ccccc23)cc1` gave Mtb growth 2%.
For CC(C)Cc1nc(C(N)=O)c2[nH]c(=O)n(-c3ccc4c(c3)OCO4)c2n1 the results were Mtb growth -9%.
Screening CC(=O)NCCc1cc2cc(C)c(C)cc2[nH]c1=O returned Mtb growth -2%.
OC(CN1CCNCC1)Cn1c2ccccc2c2ccccc21 (stereo unspecified) was read as Mtb growth 10%.
`CC(C)c1ccc(/C=C(\C#N)C(=O)Nc2cccc(Br)c2)cc1` gave Mtb growth -9%.
`Cc1cc(NC(=O)CSc2nnc(-c3ccco3)o2)no1` gave Mtb growth -15%.
For O=c1[nH]c(-c2cccc(O)c2)nc2c1Cc1c(ccc3ccccc13)O2 the results were Mtb growth -5%.
`Cc1ccc(CSc2nc3c(c(=O)[nH]2)C(c2ccncc2)C2=C(CC(C)(C)CC2=O)N3)cc1` (stereo unspecified) gave Mtb growth 9%.
Screening N#Cc1ccc(OC(=O)/C(F)=C(\F)c2ccccc2)cc1 returned Mtb growth -12%.
For COc1ccc(-c2ccc(=O)n(CCNS(=O)(=O)CCc3ccccc3)n2)cc1 the results were Mtb growth 0%.
Screening CC(=O)N(Cc1cccnc1)c1nc2cc3c(cc2s1)OCCO3 returned Mtb growth 47%.
`Cc1nnc(SCC(=O)NCc2ccc3c(c2)OCO3)n(N)c1=O` gave Mtb growth 3%.

Compound activity deposited in PubChem by Southern Research Institute.
